Assay outcomes deposited in PubChem by National Center for Advancing Translational Sciences (NCATS).
Menin-MLL FL inh: qHTS Assay for Inhibitors Targeting the Menin-MLL Interaction in MLL Related Leukemias: Competition With Fluorescein Labeled MLL-derived Peptide; Fluorescence polarization, fluorescein-MLL peptide displacement from menin; AID 1766, 2009; FP activity change, % at 61.4 µM; 290,000 tested, under 10 active; inconclusive = falling polarisation curve, or a change in total fluorescence; inactive = total fluorescence flat and polarisation flat or rising; no compound was filed as active; the % refers to the polarisation; negative = inhibition;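 also: % of control where 0% means no effect; inhibitors lower the polarisation; unlabelled MLL peptide was the positive control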
gsp antag: qHTS for Antagonists of gsp, the Etiologic Mutation Responsible for Fibrous Dysplasia/McCune-Albright Syndrome: qHTS. gsp-mutant cells, cAMP HTRF, 30 min; control for the full effect not named in the record. Potency, µM (highest dose often 76.9 µM), for inactives: top-dose activity change, negative = inhibition, usual class: inhibitors. 340,000 compounds, 0.4% hits. AID 624288, 2012; active = falling curve of any shape with a large fitted effect; inconclusive = falling curve, mostly with a smaller effect; inactive = flat or rising curve; cell line not stated here;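 also: intracellular cAMP measured with PDE inhibitor Ro 20-1724 present during compound exposure; potency is read from the fitted curve at half-maximal effect; % is scaled to controls: 0 for no effect and ±100 for the full control effect; nearly all actives have a fitted effect of over 65% in size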
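Cells in G418 medium, seeded 16-24 h, 37C; buffer exchange to DPBS + 1 mM CaCl2, 0.5 mM MgCl2, 0.05% BSA; cpds in DMSO + […] (300 uM stock), 30 min 37C; HTRF cAMP detection.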
gsp ag: qHTS for Agonist of gsp, the Etiologic Mutation Responsible for Fibrous Dysplasia/McCune-Albright Syndrome: qHTS; Potency, µM (top dose mostly 76.9 µM), for the others: top-dose activation (cAMP increase), actives largely listed as activators; AID 624287, 2012; 340,000 compounds, 0.13% hits; gsp mutant cells, cAMP HTRF, 30 min; control for the full effect not named in the record; active = well fitted activation curve with a large enough effect; inconclusive = small, poorly fitted or top-dose-only effect, or another doubt; inactive = no such curve, though single readings can be large or run the other way; cell line not stated here;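 also: phosphodiesterase inhibitor Ro 20-1724 added with compounds to block cAMP breakdown; potency is read from the fitted curve at half-maximal effect; nearly all actives have a fitted effect of over 60% in size; about a fifth of the inactives were tested at one dose only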
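Cells stably selected in G418 were plated at 2000/well, grown 16-24 hr, then given compounds in DMSO with the PDE inhibitor […] (300 uM solution added) for 30 min at 37C; cAMP was read by HTRF.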
PINK1 expr mod: A Quantitative High throughput Screen to Identify Chemical Modulators of PINK1 Expression | Potency, µM (doses to about 76.6 µM), for inactives: at the top dose activation (PINK1 increase), usual class: activators | 410,000 compounds, 0.2% hits | AID 624263, 2012 | PINK1 immunofluorescence, high-content cytometry, 24 h; active = well fitted activation curve with a large enough effect; inconclusive = small, poorly fitted or top-dose-only effect; inactive = flat fitted curve, though single readings scatter; cell line not stated here;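 also: potency is read from the fitted curve at half-maximal effect; % of control where 0% means no effect; nearly all actives have a fitted effect of over 65% in size; a mitochondrial uncoupler was the plate control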
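Cells are seeded, rested 12 hours, then given compound at five concentrations or DMSO for 24 hours. After fixation, blocking and antibody staining, PINK1 amount and mitochondrial localization are scored; CCCP serves as control.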
ClpP mod: qHTS Assay for Activators of ClpP | 340,000 compounds, 1.9% hits | AID 651965, 2013 | purified B. subtilis ClpP, FRET peptide cleavage, 20 min | Potency, µM (doses to about 57.5 µM), for inactives: at the top dose activity change, negative = active; active = well fitted falling curve with a large enough effect; inconclusive = small, poorly fitted or top-dose-only effect; inactive = no such curve, though single readings can be large or run the other way; also: potency is read from the fitted curve at half-maximal effect; the source files actives as falling curves though it sought activators and does not explain the sign; nearly all actives have a fitted effect of over 65% in size; many hits overshoot -100%
Target sequence (P80244 whole entry, looked up): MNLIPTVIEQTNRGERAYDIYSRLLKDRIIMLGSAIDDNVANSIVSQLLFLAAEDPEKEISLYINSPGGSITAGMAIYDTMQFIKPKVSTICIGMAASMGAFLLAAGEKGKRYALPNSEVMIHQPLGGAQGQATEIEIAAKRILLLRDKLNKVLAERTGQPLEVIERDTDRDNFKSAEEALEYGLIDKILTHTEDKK
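Purified B. subtilis ClpP, 10 microg/mL final in Tris/HCl pH8 with KCl, BSA, glycerol and Tween-20, cleaved an Abz/nitrotyrosine-quenched decapeptide. Fluorescence (ex 320, em 430) was read at 0 and 20 min at room temperature. Delta was normalized to 5.8 microM ADEP and DMSO/no-enzyme controls.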
Sfp inh: qHTS Assay for Inhibitors of Bacillus subtilis Sfp phosphopantetheinyl transferase (PPTase). Potency, µM, for inactives: max response, negative = inhibition, actives largely listed as inhibitors. 4'-phosphopantetheinyl transferase ffp (Bacillus subtilis), Q9F4F7. Biochemical Sfp PPTase activity, qHTS. AID 1490, 2009. 310,000 compounds, 3.5% hits; active = well fitted inhibition curve with a large enough effect; inconclusive = small, poorly fitted or top-dose-only effect, or another doubt; inactive = no such curve, though single readings can be large or run the other way;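 also: the enzyme is Sfp with the accession as filed and its product quenches rhodamine fluorescence; potency is read from the fitted curve at half-maximal effect; 0% = enzyme reaction without inhibitor and -100% = no enzyme wells; top concentration of the series not given in the record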
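Buffer: 50 mM Hepes-Na pH 7.6, 10 mM MgCl2, 0.01% Nonidet P-40, 0.01% BSA. Enzyme 15 nM, pre-exposed to compound 15 min; substrates then added and fluorescence change tracked over 30 min.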
D2 agonist: Beta-Arrestin HTS for Positive Allosteric Modulators of the Human D2 Dopamine Receptor: Agonists; D(2) dopamine receptor (Homo sapiens), P14416; DiscoveRx PathHunter D2 beta-arrestin, luminescence, 90 min; 100% = 57 uM dopamine signal; activation, % (test concentration not listed); 360,000 compounds, 0.084% hits; AID 624465, 2012; in the data active = activation above about 40%; inconclusive = about 15% to 40%; inactive = below about 15%; also: compound concentration not given in the record; the text of the record calls up to 30% inactive
Target sequence (P14416 whole entry, looked up): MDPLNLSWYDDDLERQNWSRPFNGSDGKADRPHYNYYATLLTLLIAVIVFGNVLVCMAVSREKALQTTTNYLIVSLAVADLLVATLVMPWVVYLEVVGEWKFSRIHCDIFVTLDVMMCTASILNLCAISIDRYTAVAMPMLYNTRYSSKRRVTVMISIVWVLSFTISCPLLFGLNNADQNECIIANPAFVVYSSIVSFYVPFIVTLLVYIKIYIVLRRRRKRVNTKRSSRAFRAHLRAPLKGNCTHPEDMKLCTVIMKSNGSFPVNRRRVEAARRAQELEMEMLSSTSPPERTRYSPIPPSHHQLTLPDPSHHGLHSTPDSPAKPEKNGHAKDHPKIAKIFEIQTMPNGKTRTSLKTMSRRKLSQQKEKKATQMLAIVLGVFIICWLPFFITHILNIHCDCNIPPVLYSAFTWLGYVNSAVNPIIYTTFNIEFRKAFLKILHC
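DiscoveRx PathHunter D2 beta-arrestin cells (2,100/well) attached overnight, then compound-stimulated 90 min at 37 C in HBSS/10 mM HEPES/0.1% Tween-20 buffer; beta-galactosidase complementation read by luminescence after 1 h at ambient temperature. Dopamine 57 uM final (EC100) as control.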
* marks the source's active call; other numbers are inactive results; & = joins results of further samples; [ ] = dose if it differs, or a comment. Random draw from the library; 5.1% or so of the library scored in one or more.

Screening N#Cc1c(-c2ccc(F)cc2)noc1N returned Menin-MLL FL inh 0.2, gsp antag 17%, gsp ag -6%, PINK1 expr mod 1.2%, ClpP mod 1.0%, Sfp inh 10% and D2 agonist inconclusive.
Screening CCOC(=O)N1CCN(c2nnc(-c3ccccc3)c3ccccc23)CC1 returned Menin-MLL FL inh -0.7, gsp antag -18%, gsp ag inconclusive, PINK1 expr mod 0.3%, Sfp inh 17% and D2 agonist -4.6.
`CCCNC(=O)C1(C)CCN(Cc2cc3ccccc3o2)C1` (stereo unspecified) gave PINK1 expr mod -0.2%, ClpP mod -0.3% and D2 agonist -4.5.
`NCCCCCC(=O)Nc1ccncc1` gave Menin-MLL FL inh -0.3, gsp antag 7%, gsp ag -9%, PINK1 expr mod 0.0%, Sfp inh 10% and D2 agonist -6.6.
For S=C(Nc1ccc(Br)cc1)NC1CCCCC1 the results were Menin-MLL FL inh 5.8, gsp antag -15%, gsp ag 24%, PINK1 expr mod inconclusive, ClpP mod 1.1%, Sfp inh 20% and D2 agonist -3.3.
CN1CC(=O)Nc2ccc([N+](=O)[O-])cc2C1=O was read as Menin-MLL FL inh -0.5, gsp antag 8%, gsp ag -103%[inhibitor], PINK1 expr mod -0.3%, Sfp inh 23% and D2 agonist -2.8.
Screening COc1cccc(NC(=O)CN(C)C(=O)CSc2ncnc3sc(C)c(C)c23)c1 returned gsp antag -7%, gsp ag -22%, PINK1 expr mod -1.2%, ClpP mod -10% and D2 agonist -5.7.
Cc1cccc(-n2c(SCc3ccc([N+](=O)[O-])cc3)nnc2-c2c[nH]c3ccccc23)c1 was read as Menin-MLL FL inh -7.6, gsp antag -14%, gsp ag -10%, PINK1 expr mod -1.0%, ClpP mod 0.4%, Sfp inh 25% and D2 agonist 3.4.
For CCN(CC)C(=O)c1cccc(-c2csc(C(NC(C)=O)c3ccccc3)n2)c1 (stereo unspecified) the results were PINK1 expr mod 0.0%, ClpP mod 0.4% and D2 agonist 9.2.
Screening CC(OC(=O)C1=Cc2ccccc2OC1)C(=O)NC1CCCC1 (stereo unspecified) returned Menin-MLL FL inh 2.7, gsp antag 9%, gsp ag 28%, PINK1 expr mod 1.8%[38.3 µM], ClpP mod -3.4%, Sfp inh 18% and D2 agonist 1.5.
For Oc1cccc(Nc2nc(O)c(/C=C3\C=Nc4ccccc43)s2)c1 the results were Menin-MLL FL inh inconclusive, gsp antag inconclusive, gsp ag inconclusive, PINK1 expr mod 3.9%, ClpP mod -3.5%, Sfp inh -24% and D2 agonist 1.7.
COc1ccccc1CN1CC(C(=O)N2CCCCCCC2)CCC1=O (stereo unspecified) was read as gsp antag 5%, gsp ag 11%[15.4 µM], PINK1 expr mod 1.8%, ClpP mod -2.7%, Sfp inh 15% and D2 agonist -2.0.
`CCN(C(=O)COC(=O)c1[nH]c(C)c(C(C)=O)c1C)c1c(N)n(Cc2ccccc2)c(=O)[nH]c1=O` gave gsp antag 5%, gsp ag 16%, PINK1 expr mod 1.0%, ClpP mod -2.7% and D2 agonist 1.1.
COc1cccc(N2CCN(C(=O)CSc3ccc(F)cc3)CC2)c1 was read as Menin-MLL FL inh -0.6, gsp antag 6%, gsp ag -2%[15.4 µM], PINK1 expr mod 0.6%, Sfp inh 6% and D2 agonist 1.8.
`Cc1cc(C(=O)N2CCN(c3ccc([N+](=O)[O-])cc3)CC2)no1` gave Menin-MLL FL inh 0.9, gsp antag -4%, gsp ag -12%, PINK1 expr mod 1.1%, ClpP mod -3.8%, Sfp inh 24% and D2 agonist 3.7.
For CN1C(=O)CSc2ccc(NC(=O)N3CCN(c4ccccn4)CC3)cc21 the results were Menin-MLL FL inh 0.1, gsp antag 9%, gsp ag -1%, PINK1 expr mod 5.2%, ClpP mod -12%, Sfp inh -1% and D2 agonist -4.9.
For CCOc1ccc(NC(=O)N2CCC(NC(=O)C(Cc3ccc(OC)c(OC)c3)NC(C)=O)CC2)cc1 (stereo unspecified) the results were Menin-MLL FL inh -0.6, gsp antag 6%, gsp ag 4%, PINK1 expr mod 1.9%, ClpP mod -2.3%, Sfp inh 9% and D2 agonist -2.8.
For CCCCNC(=O)N1CCc2[nH]c3ccccc3c2C1 the results were Menin-MLL FL inh -24, gsp antag 6%, gsp ag -17%, PINK1 expr mod -2.2%, ClpP mod -27%, Sfp inh -5% and D2 agonist -4.9.
`COC/C=C/C1=CC2=CC(=O)C(C)(OC(=O)c3cnc4ccccc4n3)C(=O)C2=CN1CCN1CCOCC1` (stereo unspecified) gave Menin-MLL FL inh -11[11.7 µM], gsp antag -15%, PINK1 expr mod 0.0%, ClpP mod -0.6%, Sfp inh 3%&2% and D2 agonist 2.3.
`CCSc1ncc(Cl)c(C(=O)Nc2cc(C)ccc2C)n1` gave Menin-MLL FL inh 3.0, gsp antag -6%, gsp ag 27%, PINK1 expr mod -0.7%&0.3%, ClpP mod -1.1%&1.9%, Sfp inh 21% and D2 agonist -7.5.
Cc1ccsc1/C=N/NC(=O)CN1CCN(S(=O)(=O)c2ccc(Br)cc2)CC1 was read as Menin-MLL FL inh 1.3, gsp antag -15%, gsp ag -5%, PINK1 expr mod 0.8%, ClpP mod 0.4%, Sfp inh 10% and D2 agonist -1.2.
For COc1cccc(NC(=S)NN=C2CCCCCC2)c1 the results were Menin-MLL FL inh -2.9, gsp antag 2%, gsp ag 14%[15.4 µM], PINK1 expr mod 0.6%, Sfp inh -15% and D2 agonist -4.5.
Screening O=C(CSc1nnc(-c2ccccc2O)o1)N1CCOCC1 returned Menin-MLL FL inh 0.4, gsp antag 5%, gsp ag -40%[inhibitor], PINK1 expr mod 1.7%, Sfp inh -11% and D2 agonist -5.7.
`N#Cc1ccc(Cn2c(-c3ccc(F)cc3)noc2=O)cc1` gave Menin-MLL FL inh -1.8, gsp antag -4%, gsp ag 2%, PINK1 expr mod -0.4%, Sfp inh 25% and D2 agonist 4.6.
Screening COc1cc(-c2cnc3c(NC=O)cc(-c4ccc(N5CCN(C)CC5)cc4)cn23)cc(OC)c1OC returned PINK1 expr mod 0.2%, ClpP mod -17% and D2 agonist -2.2.
`COc1ccc(S(=O)(=O)N2CCC(C(=O)NCCC3=CCCCC3)CC2)cc1OC` gave Menin-MLL FL inh 0.4, gsp antag -5%, gsp ag -43%[inhibitor], PINK1 expr mod -2.1%[38.3 µM], ClpP mod 0.2%, Sfp inh 4% and D2 agonist 4.8.
`Cc1ccc(N(C)S(=O)(=O)c2cccc(C(=O)NC3CC(C)(C)NC(C)(C)C3)c2)cc1` gave gsp antag 2%, gsp ag 23%[15.4 µM], PINK1 expr mod 5.3% and D2 agonist -6.0.
Cc1cc(NCCOCCO)n2c(nc3ccccc32)c1C#N was read as Menin-MLL FL inh -2.6, gsp antag -5%, gsp ag 15%, PINK1 expr mod 3.2%, Sfp inh -6% and D2 agonist 0.1.
Screening COc1ccc(S(=O)(=O)N2CCCC(C(=O)N3CCCCCC3)C2)cc1 (stereo unspecified) returned Menin-MLL FL inh -1.5, gsp antag -4%, gsp ag -19%, PINK1 expr mod -2.2%, ClpP mod 0.7%, Sfp inh -4% and D2 agonist -4.2.
Cc1ccc(C)c(NC(=S)NCCSc2ccc(Cl)cc2)c1 was read as Menin-MLL FL inh 4.5, gsp antag -25%, gsp ag -7%, PINK1 expr mod inconclusive, ClpP mod 0.8%, Sfp inh 15% and D2 agonist -0.8.
`O=c1[nH]c(-c2ccccn2)nc2ccccc12` gave Menin-MLL FL inh -1.6, gsp antag -7%, gsp ag 13%, PINK1 expr mod -1.3%, ClpP mod -19%, Sfp inh 79µM* and D2 agonist -2.0.
Cc1nn(-c2ccccc2)c(C)c1/C=C/C(=O)OCC(=O)NC1CCS(=O)(=O)C1 (stereo unspecified) was read as Menin-MLL FL inh 0.5, gsp antag -3%, gsp ag -1%[15.4 µM], PINK1 expr mod 3.9%, Sfp inh 8% and D2 agonist -3.7.
For CCCCN(C(=O)C1CC(=O)N(c2ccc(C)cc2)C1)c1c(N)n(CCC)c(=O)[nH]c1=O (stereo unspecified) the results were gsp antag -3%, gsp ag inconclusive, PINK1 expr mod 3.1%, ClpP mod 2.1% and D2 agonist -5.2.
`CN(C)c1ccc(CC(=O)N2CCCCC2c2cc(C(=O)Nc3ccccc3)no2)cc1` (stereo unspecified) gave PINK1 expr mod -0.7%, ClpP mod -4.1% and D2 agonist 3.7.
For O=C(CCS(=O)(=O)c1cccs1)Nc1ccc(C(=O)NC2CCCC2)cc1 the results were Menin-MLL FL inh 0.5, gsp antag 3%, gsp ag 1%[15.4 µM], PINK1 expr mod 0.4%, Sfp inh 20% and D2 agonist -3.1.
`COC(=O)Cc1[nH]nc2c1C1(C(=O)N(Cc3ccccc3)c3ccccc31)C(C#N)=C(N)O2` (stereo unspecified) gave Menin-MLL FL inh -0.2, gsp antag -3%, gsp ag -14%, PINK1 expr mod -2.2%, ClpP mod 1.4%, Sfp inh 16% and D2 agonist -1.4.
For NS(=O)(=O)c1ccc(CCNC(=O)C(=O)NCC2OCCN2S(=O)(=O)c2ccc(Cl)cc2)cc1 (stereo unspecified) the results were Menin-MLL FL inh -15, gsp antag 9%, gsp ag -39%[inhibitor], PINK1 expr mod 2.5%, ClpP mod 1.6%, Sfp inh 7% and D2 agonist -3.7.
For CN(C)c1ccc(CN(C)C2CCCCC2)cc1 the results were Menin-MLL FL inh 0.3, gsp antag -6%, gsp ag 2%, ClpP mod 0.2%, Sfp inh 12% and D2 agonist 0.0.
